Source: PubChem
TRPV1 potentiator – enhances activation of the human vanilloid receptor TRPV1; TRPV1-expressing cells, Fluo-8 calcium influx, capsaicin EC20 potentiation; host cell line not named in the record; control for the full effect not named in the record; hit rate 0.02% among 320,000; potentiation, % at 8.33 µM; active means potentiation above 80%; inconclusive means 30% to 80%; inactive means below 30%; also: 0% is about no effect
Target sequence (Q8NER1 whole entry, looked up): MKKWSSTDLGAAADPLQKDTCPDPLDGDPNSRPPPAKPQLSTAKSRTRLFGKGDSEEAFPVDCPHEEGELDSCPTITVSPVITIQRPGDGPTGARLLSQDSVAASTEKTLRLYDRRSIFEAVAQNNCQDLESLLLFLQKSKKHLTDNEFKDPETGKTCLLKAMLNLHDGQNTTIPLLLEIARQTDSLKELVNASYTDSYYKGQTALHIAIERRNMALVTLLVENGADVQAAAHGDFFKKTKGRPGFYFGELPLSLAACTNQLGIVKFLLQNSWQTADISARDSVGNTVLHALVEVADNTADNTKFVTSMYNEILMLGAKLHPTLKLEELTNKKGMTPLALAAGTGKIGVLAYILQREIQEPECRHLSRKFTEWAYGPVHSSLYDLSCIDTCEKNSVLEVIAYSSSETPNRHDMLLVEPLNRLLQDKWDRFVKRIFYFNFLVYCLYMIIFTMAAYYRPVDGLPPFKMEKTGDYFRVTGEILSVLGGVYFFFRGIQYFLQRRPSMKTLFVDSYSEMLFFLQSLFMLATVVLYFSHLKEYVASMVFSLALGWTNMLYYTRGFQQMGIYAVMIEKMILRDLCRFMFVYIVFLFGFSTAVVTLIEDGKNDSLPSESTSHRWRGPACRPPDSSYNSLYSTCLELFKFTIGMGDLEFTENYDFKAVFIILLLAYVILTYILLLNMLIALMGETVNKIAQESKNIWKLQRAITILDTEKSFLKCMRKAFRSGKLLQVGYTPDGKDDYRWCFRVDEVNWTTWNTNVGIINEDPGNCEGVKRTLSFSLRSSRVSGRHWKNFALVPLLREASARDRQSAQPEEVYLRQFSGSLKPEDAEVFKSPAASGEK
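Cells expressing TRPV1 were dye-loaded with Fluo-8 and read kinetically: 10 s baseline, 3 min after compound (agonist portion), then 2 min after EC20 capsaicin (allosteric enhancer portion). Calcium-bound dye fluorescence at 480/520 nm.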
Menin-MLL FL inh – menin-MLL binding inhibition, fluorescein peptide; Fluorescence polarization, fluorescein-MLL peptide displacement from menin; FP activity change, % at 61.4 µM; 290,000 tested, under 10 active; inconclusive = falling polarisation curve, or a change in total fluorescence; inactive = total fluorescence flat and polarisation flat or rising; no compound was filed as active; the % refers to the polarisation; negative = inhibition;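 also: % of control where 0% means no effect; inhibitors lower the polarisation; unlabelled MLL peptide was the positive control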
CtBP-E1A blk – CtBP/E1A binding inhibition; AlphaScreen GST-E1A/His-CtBP binding, 1536-well; hits give low values; control for the full effect not named in the record; activity change, % (no concentration beside the values); hit rate 0.49% among 340,000; AID 651724; in the data active means activity change below about -65%; inconclusive means about -30% to -65%; inactive means above about -30%; also: % is scaled to controls: 0 for no effect and ±100 for the full control effect; compound concentration not given in the record
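Homogeneous bead-based format: GST-tagged E1A captured on glutathione donor beads, His-tagged CtBP on nickel acceptor beads; compounds precede bead addition by 2 h at 37 °C.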
gsp antag – antagonizes gsp, the McCune-Albright syndrome mutation; hit rate 0.4% among 340,000; Potency, µM (titrated, usually from 76.9 µM), for inactives: at the highest dose activity change, negative = inhibition, usual class: inhibitors; gsp-mutant cells, cAMP HTRF, 30 min; control for the full effect not named in the record; active = falling curve of any shape with a large fitted effect; inconclusive = falling curve, mostly with a smaller effect; inactive = flat or rising curve; cell line not stated here;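 also: intracellular cAMP measured with PDE inhibitor Ro 20-1724 present during compound exposure; potency is read from the fitted curve at half-maximal effect; % is scaled to controls: 0 for no effect and ±100 for the full control effect; nearly all actives have a fitted effect of over 65% in size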
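Cells, 2000/well, grown 16–24 h in DMEM 10% FBS with 0.5 mg/ml G418, then compounds plus […] (300 uM addition stock), 30 min at 37C. cAMP read by HTRF (cAMP-d2 and anti-cAMP antibody-K in lysis buffer) after 30 min RT.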
gsp ag – activates gsp, the McCune-Albright syndrome mutation | AID 624287 | Potency, µM (series often up to 76.9 µM), for inactives: at the top dose activation (cAMP increase), most hits filed as activators | gsp mutant cells, cAMP HTRF, 30 min; control for the full effect not named in the record | hit rate 0.13% among 340,000; active = well fitted activation curve with a large enough effect; inconclusive = small, poorly fitted or top-dose-only effect, or another doubt; inactive = no such curve, though single readings can be large or run the other way; cell line not stated here;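 also: phosphodiesterase inhibitor Ro 20-1724 added with compounds to block cAMP breakdown; potency is read from the fitted curve at half-maximal effect; nearly all actives have a fitted effect of over 60% in size; about a fifth of the inactives were tested at one dose only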
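Cells in DMEM/10% FBS with G418 were pretreated with compounds in DMSO plus […] (300 uM stock) for 30 min at 37C. cAMP was measured by HTRF (cAMP-d2 plus anti-cAMP antibody-K) after 30 min at room temperature.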
Sfp PPTase inh – Sfp phosphopantetheinyl transferase inhibition | Biochemical Sfp PPTase activity, qHTS | Potency, µM, inactives show max response, negative = inhibition, most hits filed as inhibitors | hit rate 3.5% among 310,000; active = well fitted inhibition curve with a large enough effect; inconclusive = small, poorly fitted or top-dose-only effect, or another doubt; inactive = no such curve, though single readings can be large or run the other way;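 also: the enzyme is Sfp with the accession as filed and its product quenches rhodamine fluorescence; potency is read from the fitted curve at half-maximal effect; 0% = enzyme reaction without inhibitor and -100% = no enzyme wells; top concentration of the series not given in the record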
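Step 1, compound plus 15 nM Sfp-PPTase, 15 min, room temperature. Step 2, add rhodamine-CoA (5 uM) and BHQ-2-YbbR (12.5 uM). Step 3, read 525/598 nm fluorescence at 0 and 30 min.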
ClpP mod – qHTS Assay for Activators of ClpP; AID 651965, 2013; ATP-dependent Clp protease proteolytic subunit (Bacillus subtilis (strain 168)), P80244; purified B. subtilis ClpP, FRET peptide cleavage, 20 min; hit rate 1.9% among 340,000; Potency, µM (series often up to 57.5 µM), without a hit: at the highest dose activity change, negative = active; active = well fitted falling curve with a large enough effect; inconclusive = small, poorly fitted or top-dose-only effect; inactive = no such curve, though single readings can be large or run the other way; also: potency is read from the fitted curve at half-maximal effect; the source files actives as falling curves though it sought activators and does not explain the sign; nearly all actives have a fitted effect of over 65% in size; many hits overshoot -100%
Target sequence (P80244 whole entry, looked up): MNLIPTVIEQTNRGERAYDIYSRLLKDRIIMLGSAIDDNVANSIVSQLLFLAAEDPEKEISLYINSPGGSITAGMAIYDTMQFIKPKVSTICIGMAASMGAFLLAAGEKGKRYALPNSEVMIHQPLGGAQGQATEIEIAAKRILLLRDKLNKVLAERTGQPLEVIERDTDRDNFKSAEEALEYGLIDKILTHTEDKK
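Purified B. subtilis ClpP, 10 microg/mL final in Tris/HCl pH8 with KCl, BSA, glycerol and Tween-20, cleaved an Abz/nitrotyrosine-quenched decapeptide. Fluorescence (ex 320, em 430) was read at 0 and 20 min at room temperature. Delta was normalized to 5.8 microM ADEP and DMSO/no-enzyme controls.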
An asterisk follows results filed as active; ? = inconclusive; nt = not tested or not shown; & = joins results of further samples; [ ] = another dose, or the depositor's remark.

| SMILES | TRPV1 potentiator | Menin-MLL FL inh | CtBP-E1A blk | gsp antag | gsp ag | Sfp PPTase inh | ClpP mod |
| --- | --- | --- | --- | --- | --- | --- | --- |
| Cc1nn(Cc2ccccc2)c(C)c1NC(=O)c1noc2c1CCc1ccccc1-2 | 3.5 | -0.4 | -7.6 | ? | -12.2% | 0.1% | -0.6% |
| CCOC(=O)c1sc(N)c(C(N)=O)c1C | 3.9 | ? | 5.3 | 1.4% | -17.4% | 31.6µM* | nt |
| O=C(CC1C[C@H](C(=O)N2CCOCC2)[C@@]2(CCC3CCCC3)c3[nH]c4ccccc4c3CCN2C1=O)NCc1ccco1 (some centres undefined) | nt | nt | 2.6 | 9.7% | nt | nt | 1.7% |
| CCC1Oc2ccc(C)cc2N(CC(=O)NCc2cccs2)C1=O (centres undefined) | -6.8 | -9.3 | 17.1 | -5.6% | -5.6% | 15.0% | nt |
| CCCC(=O)Nc1nnc(CCc2ccccc2)s1 | -1.0 | 2.5 | nt | -0.9% | 0.3% | 13.2% | 0.5% |
| CCOc1ccc(C2Nc3cccc4cccc(c34)N2)cc1OC | 9.1 | ? | -7.3 | 4.0% | 23.2% | -26.3% | -2.7% |
| Cn1c2ccccc2c(=O)c2ccc(F)cc21 | -2.9 | -0.3 | -6.1 | 7.9% | 0.6% | 10.5% | 5.0%&4.2% |
| Cc1ccc(S(=O)(=O)N(CCCN2CCCC2=O)Cc2cc3c(C)ccc(C)c3[nH]c2=O)cc1 | 11.1 | -0.1 | 5.0 | -27.6% | -35.8%[inhibitor] | -16.1% | -25.2% |
| CC(=O)c1cccc(NC(=O)C2=CN3CCS(=O)(=O)N=C3C=C2)c1 | -11.6 | nt | nt | 7.9% | -2.4% | nt | 3.9% |
| CCOc1ccc(NC(=O)/C(C=Nc2ccccc2)=C(\C)O)cc1 | -1.6 | -7.1 | 4.3 | -13.3% | -4.5%[15.4 µM] | -22.2% | 0.6% |
| COc1ccc(-n2c(SCC(=O)NC3CCCCC3)nc3ccsc3c2=O)cc1 | -16.1 | 1.9 | 6.1 | 20.6% | ? | 4.5% | 1.1% |
| COc1ccc(NC(=O)C(=O)NCCC2CCCCN2S(=O)(=O)c2cccs2)cc1 (centres undefined) | 6.6 | nt | -1.8 | 12.9% | 13.9%[15.4 µM] | nt | 0.4% |
| N#C/C(=C\c1c[nH]c2ccccc12)C(=O)NC1CCCC1 | -4.3 | 4.9 | -22.4 | -4.4% | 15.3% | 7.9% | -0.9% |
| COC(=O)C(O)(CC(=O)Nc1cc(Cl)ccc1Cl)C(F)(F)F (centres undefined) | 21.7 | -1.4 | 2.4 | 8.5% | ? | 19.0% | -1.2% |
| Cc1ccccc1NC(=O)/C(C#N)=C\c1cccnc1 | 29.0 | 2.9 | -7.2 | 2.8% | 18.2% | 7.7% | -2.8% |
| CCCNC(=O)CSc1ccc(S(=O)(=O)N(C)C2CCCCC2)cn1 | nt | nt | 3.2 | nt | -186.7%[inhibitor] | nt | 0.3% |
| C/C(=N\NC(=O)Cc1c[nH]c2ccccc12)c1ccc2ccccc2c1 | -14.5 | 3.9 | -4.6 | -24.2% | 2.3%[15.4 µM] | 8.1% | 0.2% |
| CC(C)C1C(=O)N(Cc2cn(CCC3OCCO3)nn2)CCS(=O)(=O)N1Cc1ccc(-c2ccc(Cl)cc2)cc1 (centres undefined) | nt | nt | -1.4 | nt | ? | nt | -5.5% |
| NS(=O)(=O)c1cnccc1Nc1cccc(Br)c1 | nt | nt | -5.3 | 4.1% | -4.2%[15.4 µM] | nt | -2.4% |
| Cc1ccc(S(=O)(=O)N2[C@@H](c3ccccc3F)C(C(=O)O)=CC[C@H]2c2ccc(C(C)C)cc2)cc1 | 27.2 | nt | nt | -13.2% | -10.3% | nt | 0.5% |

(continued)
Values run as follows: TRPV1 potentiator	Menin-MLL FL inh	CtBP-E1A blk	gsp antag	gsp ag	Sfp PPTase inh	ClpP mod
- CCOC(=O)C1=CNS(=O)(=O)NC1c1ccc(Br)cc1F (centres undefined)
 : nt	nt	18.3	-7.0%	nt	nt	-8.1%
- O=C(CSc1nc(-c2ccccc2)nc2c1Cc1ccccc1O2)Nc1ccc(C(=O)O)cc1
 : 12.0	13.5	-4.7	nt	-6.9%[15.4 µM]	79.4µM*	nt
- Cc1sc2nc(CN3CCOCC3)nc(N3CCN(S(=O)(=O)c4ccccc4)CC3)c2c1C
 : -8.5	nt	5.5	-14.0%	-10.6%	nt	1.2%
- CCOC(=O)c1cccc(NC(=O)CCc2nc(-c3ccc(C)cc3)no2)c1
 : -26.7	0.6	9.5	0.3%[15.4 µM]	?	-0.1%	0.9%
- COCCN(Cc1ccccc1)C(=O)c1ccc2c(c1)NC(=O)CS2
 : -3.9	nt	-16.1	-1.0%	-58.5%[inhibitor]	nt	2.0%
- CN(C)c1ccc(C(=O)Nc2cccc(S(=O)(=O)N3CCCC3)c2)cc1
 : -5.1	nt	?	-20.3%	7.3%	nt	-16.4%
- FC(F)C(F)(F)c1cc(-c2ccc(Cl)cc2)n[nH]1
 : 13.3	-0.9	0.5	0.0%	-12.0%[15.4 µM]	-22.3%	nt
- CC1=[N+](C)N(c2ccccc2)C(=O)C1N=Cc1ccccc1Cl (centres undefined)
 : -13.6	4.0	3.7	-2.8%	-31.9%	4.3%	0.0%
- Cc1nn(C)cc1CN1CCC(n2nccc2NC(=O)CCCc2ccccc2)CC1
 : -8.4	nt	-16.3	2.7%	15.3%	-4.3%	-2.2%
- CCNC(=S)N1CCn2cccc2C1c1ccc(F)cc1 (centres undefined)
 : -4.2	-9.5	-8.1	-5.7%	-1.7%[15.4 µM]	11.6%	nt
- Cc1c(C(=O)Nc2c(N)nc(SCC(=O)NCC3CCCO3)[nH]c2=O)cccc1[N+](=O)[O-] (centres undefined)
 : 25.0	nt	10.4	-8.2%	9.6%[15.4 µM]	8.7%	0.4%
- Cc1ccsc1CN(C)C(=O)c1cc(S(=O)(=O)N2CCOCC2)ccc1N1CCCC1
 : -15.0	nt	1.3	-5.3%	?	nt	-0.8%
- Cc1cccc(NC(=O)CCN2CC(C)OC(C)C2)c1 (centres undefined)
 : 1.9	3.9	13.3	-2.5%	-1.6%	-6.7%	-5.6%
- Oc1ccc(-c2nc3ccccn3c2NCc2ccco2)cc1
 : -12.9	-0.9	0.0	?	?	7.5%	?
- CCc1nn2cc(-c3ccccc3)nc2s1
 : -10.7	0.1	3.4	6.2%	-4.3%	9.9%	1.6%
- CC(C)CNC(CC(=O)O)c1ccccc1 (centres undefined)
 : -7.4	1.9	3.7	4.5%	7.6%[15.4 µM]	18.1%	-0.2%
- Cc1cc(C)n(-c2ccc(C(=O)OCC(=O)Nc3ccc(Cl)c(S(=O)(=O)N(C)C)c3)cc2)n1
 : 8.5	4.4	-4.4	-34.9%	2.7%	16.5%	-12.6%
- C#CCOCCOCCOCCNc1nc(N2CCN(C(=O)[C@H]([C@@H](C)CC)n3cc([C@@H](N)CC(C)C)nn3)CC2)nc(N2CCN(C(=O)[C@H](Cc3ccc(O)cc3)n3cc([C@@H](N)CC(C)C)nn3)CC2)n1
 : 7.7	-0.3	-10.2	7.3%	0.7%	6.4%	2.1%
- Cn1cccc1CC(=O)N/N=C/c1ccc(Cl)cc1
 : -12.3	3.4	18.2	-16.9%	-7.2%[15.4 µM]	9.3%	nt
- O=C(CSc1nnc(Nc2ccccc2)s1)NCCN1C(=O)CSC1=O
 : -1.9	-1.4	0.0	0.3%	-60.8%[inhibitor]	5.9%	1.8%
- CS(=O)(=O)Nc1ccccc1C(=O)N1CCN(c2ccccc2)CC1
 : -10.8	3.3	nt	nt	nt	-0.4%	nt
- COc1cccc2c1CCc1c-2nc2ccccc2c1C(=O)O
 : -5.9	-4.6	-2.6	-12.8%	1.2%	1.9%	nt
- CCS(=O)(=O)N1CCN(c2ccc(C(=O)NC34CC5CC(CC(C5)C3)C4)cc2[N+](=O)[O-])CC1
 : 0.1	1.2	5.0	7.5%	4.9%[15.4 µM]	5.5%	-2.4%
- Cc1ccc2c(c1)NC(c1cccs1)C1=C(CC(C)(C)CC1=O)N2 (centres undefined)
 : -8.4	-1.7	0.0	-2.7%	6.7%[15.4 µM]	17.2%	nt
- COc1ccc(CNC(=O)COC(=O)[C@@H]2CCCN2C(=O)c2cccs2)cc1
 : nt	nt	2.4	-5.3%	23.0%	nt	nt
- Cc1ccc(N(CC(=O)Nc2ccccc2-c2ccccc2)S(=O)(=O)c2ccccc2)c(C)c1
 : 6.0	-0.6	nt	-6.0%	-57.7%[inhibitor]	14.4%	-10.8%
- CCN(CC)C(=O)[C@H]1CC(CC(=O)NCCN2CCOCC2)C(=O)N2CCc3c([nH]c4ccc(OC)cc34)[C@]12C (some centres undefined)
 : nt	nt	0.8	12.7%	nt	nt	-6.8%
- CC(C)(C)CC(=O)NCc1cccs1
 : -11.4	-1.8	-2.1	3.2%	?	25.9%	-1.9%
- CCN(CC)c1ccc(C(=O)OCC(=O)Nc2ccccc2-c2ccccc2)cc1
 : 7.3	3.0	nt	?	13.4%	-6.6%	?
- CCOC(=O)N/N=C/C=C/c1ccccc1[N+](=O)[O-]
 : -21.9	-1.7	0.2	2.1%	17.5%[15.4 µM]	3.4%	nt

3 of the compounds above, field by field:
COc1cccc2c1CCc1c-2nc2ccccc2c1C(=O)O
  TRPV1 potentiator: -5.9
  Menin-MLL FL inh: -4.6
  CtBP-E1A blk: -2.6
  gsp antag: -12.8%
  gsp ag: 1.2%
  Sfp PPTase inh: 1.9%
  ClpP mod: nt
CCS(=O)(=O)N1CCN(c2ccc(C(=O)NC34CC5CC(CC(C5)C3)C4)cc2[N+](=O)[O-])CC1
  TRPV1 potentiator: 0.1
  Menin-MLL FL inh: 1.2
  CtBP-E1A blk: 5.0
  gsp antag: 7.5%
  gsp ag: 4.9%[15.4 µM]
  Sfp PPTase inh: 5.5%
  ClpP mod: -2.4%
Cc1ccc2c(c1)NC(c1cccs1)C1=C(CC(C)(C)CC1=O)N2 (centres undefined)
  TRPV1 potentiator: -8.4
  Menin-MLL FL inh: -1.7
  CtBP-E1A blk: 0.0
  gsp antag: -2.7%
  gsp ag: 6.7%[15.4 µM]
  Sfp PPTase inh: 17.2%
  ClpP mod: nt
